Beta cell apopt – blocks beta cell apoptosis; INS-1E cytokine-induced death, ATP luminescence, 48 h; percent of positive-control rescue, neutral wells zero; protection from apoptosis, % (test concentration not listed); actives 0.8% (n = 300,000);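 active = all replicates at 75% or more, or half of them and the mean; inconclusive = half reach 75% but not the mean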;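 also: 0% = cytokine-treated negative control wells and 100% = positive control rescue; higher means more ATP so stronger rescue from cytokine killing; wells of about 40 µL received 100 nL stock; the first replicate is given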
B2AR ag – human beta-2 adrenergic receptor agonism by FAP | actives 0.43% (n = 340,000) | Am2.2-beta2AR cells, FAP receptor internalization, flow cytometry; reference of the scale not given here | AID 504454 | P07550 | response, % (no concentration beside the values);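 active = response above a set limit, near 3 SD of response in nonfluorescent compounds, cut at about 42% in these data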;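 also: stock transfer was 100 nL into about 11 µL; a reference agonist was the positive control; negative values mostly stem from fluorescent compounds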
ALR H2O2 inh – human ALR oxidase inhibition via reduced H2O2; actives 3.8% (n = 290,000); P55789; inhibition, % (test concentration not listed); purified ALR, DTT oxidation, H2O2 HRP-luminol luminescence;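 active = mean and each replicate at 75% or more; inconclusive = only one of the two met; inactive = neither met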;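 also: stock transfer was 7.5 nL into about 7.5 µL; 0% = neutral wells and 100% = wells with inactivated enzyme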
Bfl-1 A1 inh – inhibitors of the anti-apoptotic protein A1, read as caspase activation. MEF A1-2A-BIM cells, Caspase-Glo 3/7 luminescence, 3 h; percent of clofoctol response, vehicle zero. caspase activation, % (concentration not given with the values). actives 0.066% (n = 330,000);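 active = over half of replicate activation scores above 10%, or exactly half above 10 with the replicate mean above 10; inconclusive = replicate mean below 10 yet half the replicates above 10; inactive = over half of replicates below 10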;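 also: wells of about 30 µL received 50 nL stock; many hits fall short of the cut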
Calb FLC – C. albicans growth modulation with fluconazole; C. albicans CaCi-2 (fluconazole-resistant clinical isolate) + fluconazole, Alamar Blue growth, 48 h; growth inhibition, % (no concentration beside the values); actives 0.57% (n = 300,000);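 active = most replicates above 75%; inconclusive = exactly half above 75%; inactive = most below 75%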;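 also: all wells also contain fluconazole at 8 µg/ml as a sub-toxic cotreatment; 0% = median of DMSO wells and 100% = median of geldanamycin control wells; wells of about 8 µL received 7.5 nL stock; the first replicate is given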
T cruzi repl – blocks replication of Trypanosoma cruzi; T. cruzi beta-gal in NIH3T3, luminescence, 90 h; inhibition, % (test concentration not listed); actives 1.4% (n = 300,000);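 active = mean inhibition across valid replicates above about 55%, limit read from the data; inconclusive = mean below that limit but half or more replicates reach it; inactive = mean below it, under half of replicates reach it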;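 also: signal also drops with host cell toxicity which is not excluded here; 0% = plate median of DMSO wells and 100% = zero luminescence signal; higher percent means less beta-gal luminescence so fewer parasites; stock transfer was 50 nL into about 50 µL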
Ecoli rRNA inh – inhibitors of bacterial rRNA selective over humanized ribosomes | actives 1.6% (n = 350,000) | AID 720706 | E. coli WT GFP vs humanized-ribosome RFP mutants, fluorescence, 24 h; hits give low values; DMSO median 0, no signal -100 | GFP signal change (wild-type ribosome), % (concentration not given with the values);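 active = significant combined selectivity score with lowered wild-type GFP, culture density cut under 30%, mutant RFP and density less affected; inactive = any of these conditions unmet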; also: one replicate is shown; some compounds called inactive have numbers as strong as hits
LANA-H2A inh – blocks KSHV LANA binding to histone H2A/H2B | Q9QR71 | cell-free LANA-H2A/H2B peptide, fluorescence polarization | inhibition, % (test concentration not listed) | actives 0.6% (n = 320,000) | AID 2629; in the data active = inhibition mostly above about 10%, no sharp cut-off; inactive = mostly below about 6.7%;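 also: stock transfer was 7.5 nL into about 10 µL; 0% = median of vehicle wells and 100% = median of positive control wells; one replicate is shown; the record names a cut of 25% in any replicate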
Target sequence (Q9QR71 whole entry, looked up): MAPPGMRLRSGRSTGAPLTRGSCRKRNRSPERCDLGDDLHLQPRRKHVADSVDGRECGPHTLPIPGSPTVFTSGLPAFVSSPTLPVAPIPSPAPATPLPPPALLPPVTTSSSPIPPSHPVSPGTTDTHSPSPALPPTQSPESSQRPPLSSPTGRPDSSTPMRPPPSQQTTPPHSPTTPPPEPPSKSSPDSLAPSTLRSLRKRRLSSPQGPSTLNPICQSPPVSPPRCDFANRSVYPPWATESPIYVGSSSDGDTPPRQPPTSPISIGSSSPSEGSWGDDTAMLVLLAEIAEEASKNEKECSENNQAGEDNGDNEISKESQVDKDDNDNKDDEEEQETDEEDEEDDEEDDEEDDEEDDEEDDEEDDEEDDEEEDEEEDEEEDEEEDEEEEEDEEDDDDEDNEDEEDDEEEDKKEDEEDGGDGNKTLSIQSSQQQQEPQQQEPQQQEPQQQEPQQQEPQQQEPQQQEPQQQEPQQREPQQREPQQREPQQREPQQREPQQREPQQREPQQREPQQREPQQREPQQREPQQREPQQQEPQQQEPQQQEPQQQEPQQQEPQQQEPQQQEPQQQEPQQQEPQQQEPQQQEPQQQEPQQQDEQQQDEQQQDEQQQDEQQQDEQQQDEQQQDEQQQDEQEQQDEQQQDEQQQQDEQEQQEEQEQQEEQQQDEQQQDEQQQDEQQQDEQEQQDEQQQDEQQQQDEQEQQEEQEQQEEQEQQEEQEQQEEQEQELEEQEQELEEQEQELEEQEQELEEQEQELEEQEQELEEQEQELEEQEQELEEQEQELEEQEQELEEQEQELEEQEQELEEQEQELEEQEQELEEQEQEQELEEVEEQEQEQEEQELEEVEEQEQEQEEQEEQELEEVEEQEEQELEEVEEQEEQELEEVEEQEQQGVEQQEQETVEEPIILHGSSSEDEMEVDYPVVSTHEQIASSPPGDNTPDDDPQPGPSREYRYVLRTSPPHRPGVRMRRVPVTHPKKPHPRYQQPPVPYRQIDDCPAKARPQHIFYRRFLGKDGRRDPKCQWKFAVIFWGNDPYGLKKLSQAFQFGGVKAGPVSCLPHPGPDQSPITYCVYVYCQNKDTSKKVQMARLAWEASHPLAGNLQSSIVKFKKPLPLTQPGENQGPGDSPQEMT
Ecoli rRNA inh OD600 – also measured in Ecoli rRNA inh; calls as there; OD600 change, %; measured here: OD600 growth;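 optical density of the mix in the first replicate; 0 = DMSO median and -100 = no signal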
Ecoli rRNA inh RFP – also measured in Ecoli rRNA inh; calls as there; RFP signal change, %; measured here: RFP humanized mutant strains;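 first replicate; 0 = DMSO median and -100 = no signal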
Active calls of the source: *; ? = inconclusive; / = no result given.

SMILES	Beta cell apopt	B2AR ag	ALR H2O2 inh	Bfl-1 A1 inh	Calb FLC	T cruzi repl	Ecoli rRNA inh	Ecoli rRNA inh OD600	Ecoli rRNA inh RFP	LANA-H2A inh
O=c1ccc(=O)n2n1CC(O)C2	0	7	1	0.4	-4	-12	/	/	/	-6.3
CCOc1cc(NC(=S)NCCCN(C)C)c(OCC)cc1NC(=O)C1CC1	0	-13	6	-0.2	2	1	/	/	/	0.3
Nc1cnn(C2CCCO2)c(=O)n1 (centres undefined)	/	-1	-2	0.4	19	7	/	/	/	-3.2
Cc1cccc(C(=O)OCC(=O)Nc2ccc(N3CCCCC3)cc2)c1O	-1	-1	7	0.3	6	29	/	/	/	-1.6
Cn1c(SCC(=O)N2CCN(c3ccccc3)CC2)nnc1-c1c[nH]c2ccccc12	5	14	13	0.0	-10	9	-7	-24	-1.4	4.6
COC(=O)Cc1ccc2oc(-c3cccnc3)nc2c1	-2	1	/	-0.3	1	-13	4	7	1.1	-1.0
CCC(C)Sc1ccc(-c2nc3ccc(C)cn3c2NC2CCCCC2)cc1 (centres undefined)	40	5	-2	-0.4	0	72*	/	/	/	3.8
COCCn1c(C)cc(C(=O)COC(=O)c2ccc3c(c2)NC(=O)CS3)c1C	-9	2	98*	-0.6	-2	-6	/	/	/	3.9
CCN(CC)c1ccc([N+](=O)[O-])cc1C(=O)O	2	-1	-28	-0.1	-19	-9	4	0	15	2.8
Cc1ccc(NC(=O)CSc2ncnc3ccccc23)cc1S(=O)(=O)N1CCCCCC1	-3	1	/	?	-3	-6	-2	-4	-2.2	/
COc1cc(C#N)c(NC(=O)CN2CCC(C(N)=O)CC2)cc1OC	-3	-2	-17	0.6	1	-12	7	13	-2.4	4.5
CCN(CC)CCNc1ccc2nnc(CCNS(=O)(=O)c3ccc(C)cc3)n2n1	-1	1	-2	0.0	?	-11	16	0	5.2	2.7
CCOC(=O)c1ccc(NC(=O)C2CC(=O)N=C(N)S2)cc1 (centres undefined)	1	-6	-29	-0.2	17	-5	20	17	1.4	-6.8
CCCCCOc1ccc(NS(C)(=O)=O)cc1	-4	1	-10	0.7	3	10	/	/	/	5.0
CCOc1ccc(Nc2nc(N)nc(CSC(=S)N3CCOCC3)n2)cc1	-3	-9	-4	0.3	-3	5	/	/	/	1.8
O=C(COc1ncnc2ccccc12)N1CCN(C(=O)c2ccco2)CC1	-2	-4	-8	0.5	2	-6	/	/	/	2.7
CCN(CC)S(=O)(=O)c1cc(C(=O)Oc2cccc(-c3cnc4ccccc4n3)c2)ccc1Br	-2	8	-2	-5.0	2	-11	/	/	/	0.3
CCCOc1ccc([N+](=O)[O-])c(N)c1	-4	-10	-3	0.1	27	9	0	14	1.6	-3.2
Cc1ccc(C(=O)NNC(=O)c2ccncc2)cc1S(=O)(=O)N1CCOCC1	-1	3	7	0.0	7	-11	12	15	3.3	-1.8
COCCNC(=O)Cn1nc(-c2ccc(C)cc2)c2ccccc2c1=O	2	0	1	0.7	-2	-7	3	12	1.5	1.8
Cc1ccc(O)c(C(=O)c2cc(C#N)c3nc4ccccc4n3c2)c1	/	-5	?	-0.2	-1	11	-14	-19	6.5	-0.9
O=C(Nc1ccc2oc(-c3ccccc3)nc2c1)c1cccnc1	21	10	-9	-1.0	47	18	/	/	/	0.3
O=C(NCc1cccnc1)c1ccc(NC(=O)c2ccco2)cc1	/	-17	/	0.2	1	-2	/	/	/	1.1
COc1ccc(/C=N/OCC(=O)NCc2cccs2)c(OC)c1	-6	1	-3	-0.2	7	22	/	/	/	-3.6
CC(=O)c1cccc(NC(=O)c2cc(S(=O)(=O)N3CCOCC3)cs2)c1	-9	-2	-1	1.1	2	3	5	7	-1.6	-1.6
O=C1CCCC/C1=C\Nc1ccc(S(=O)(=O)Nc2cnc3ccccc3n2)cc1	-3	13	1	0.2	-5	4	8	11	-5.7	-3.3
CCCC(=O)C1=C(O)C(C(=O)OC)C(C)(C)CC1=NC (centres undefined)	/	-5	/	-0.4	-4	-2	/	/	/	0.4
CC(=O)c1cccc(NC(=O)Cn2cnc(S(=O)(=O)N3CCC(C)CC3)c2)c1	-2	2	-9	0.2	23	-6	/	/	/	3.1
CC(=O)C1=C(Nc2ccccc2)CC(C)(O)C(C(C)=O)C1c1ccccc1 (centres undefined)	2	-2	4	0.7	-20	11	13	11	3.1	0.3
O=C(O)CNC(=O)/C(=C/c1ccco1)NC(=O)/C=C/c1ccccc1	-3	-3	-2	0.2	-7	0	/	/	/	-7.1
CN(C)S(=O)(=O)c1ccc(C(=O)NCc2nnc(SCC(=O)N3CCCCCC3)o2)cc1	3	10	-14	-0.2	-4	5	15	12	1.9	5.9
O=C(O)c1c(NC(=O)N2CCOCC2)sc2c1CCCC2	4	-4	4	-3.4	1	-5	7	4	1.3	-0.3
Cc1cc(C)c(S(=O)(=O)Nc2ncccc2C)c(C)c1	-1	-4	-51	-1.5	4	-5	12	10	1.6	3.1
O=S(=O)(c1cc(F)ccc1F)N1CCN(C2CCCCC2)CC1	-2	0	-4	-1.3	/	8	7	-4	0.9	8.7
O=C(CN1C(=O)NC2(CCCC2)C1=O)Nc1cccc(-c2nnc3n2CCCCC3)c1	-9	-8	-7	0.3	3	/	/	/	/	-6.0
Cc1cc(C)cc(N(C(=O)c2ccc(Br)o2)C2C=CS(=O)(=O)C2)c1 (centres undefined)	1	8	1	0.1	/	5	1	-8	2.8	-9.6
O=C1COc2ccc(S(=O)(=O)CCC(=O)N3CCN(c4cccc(C(F)(F)F)c4)CC3)cc2N1	28	-7	-5	0.9	-3	-6	-8	-14	2.0	1.5
COc1ccc(N2CCN(S(=O)(=O)CCNC(=O)COc3ccccc3)CC2)cc1	2	4	0	1.4	5	-7	1	5	-0.9	-1.2
N/C(=N\OC(=O)c1ccc(F)cc1)c1cccc([N+](=O)[O-])c1	0	-7	-2	-1.5	-3	-6	5	8	-1.7	-0.1
O=C(COc1ncnc2ccccc12)Nc1cc([N+](=O)[O-])ccc1F	-8	-4	-1	0.4	-6	-4	-1	-3	-1.1	3.9
COC(=O)c1c(NC(=O)c2cccc([N+](=O)[O-])c2)sc(C(N)=O)c1C	16	7	-5	-0.2	2	-49	18	10	3.1	9.6
COc1ccc(-c2ncccc2OC(=O)C23CC4CC(CC(C4)C2)C3)cc1OC	-4	-10	-3	0.0	42	-36	1	4	3.5	-0.2
CCOC(=O)c1cnc2c(c(C)nn2C)c1Oc1ccc(Cl)cc1	-6	10	-2	0.0	18	-4	/	/	/	-4.1
Cc1ccc(Nc2nnc(SCC(=O)Nc3ncc(S(=O)(=O)c4ccc([N+](=O)[O-])cc4)s3)s2)cc1	1	-8	-1	0.7	-2	8	/	/	/	-1.8
CCOC(=O)N1CCN(S(=O)(=O)c2ccc3c(c2)SCC(=O)N3)CC1	0	-6	/	1.3	?	1	/	/	/	1.6
COc1ccc(-c2n[nH]c3c2CN(C(=O)c2ccccc2)CC3)cc1	3	-15	-1	-0.7	10	1	-17	-9	1.2	2.9
Cc1ccc(C(=O)COc2cccc(NC(=O)c3ccco3)c2)cc1	6	-16	/	-2.4	-7	/	/	/	/	3.3
Cc1cc(OCC(=O)N2CCC(O)CC2)c2c(C)cc(=O)oc2c1	/	1	-7	-0.3	-8	-15	/	/	/	-3.1
O=C(OCCN1C(=O)c2ccccc2C1=O)[C@@H]1CC(O)CN1S(=O)(=O)c1ccccc1[N+](=O)[O-] (some centres undefined)	4	-4	-3	0.7	/	/	-10	-2	0.0	8.6
COc1ccc(CNC(=O)C(C)N2CCN(S(=O)(=O)c3ccccc3F)CC2)cc1 (centres undefined)	0	4	-4	0.4	/	/	-56	-80	-17	-0.6
CCCC1(C(=O)OCC)NC(c2ccc(O)cc2)C2C(=O)N(c3ccc4c(c3)OCCO4)C(=O)C21 (centres undefined)	-6	-4	0	-0.1	-2	0	1	3	0.7	-2.9
O=C(COC(=O)CSc1ccc([N+](=O)[O-])cc1)NCCc1ccccc1	-11	-4	-12	0.1	19	12	-6	-6	-1.2	-4.6
O=C(Nc1ccc(Oc2cccnc2)cc1)C1CCN(Cc2ccccc2)CC1	3	-9	-9	0.3	1	23	6	-4	-0.9	0.1
COC(=O)c1ccc(Cn2nc(-c3ccc(C)c(C)c3)ccc2=O)cc1	1	-1	/	-0.8	-13	-16	8	4	1.5	-1.6
CCOC(=O)Cc1csc(SCC(=O)NC2CCCC(C)C2C)n1 (centres undefined)	-3	-13	-6	-0.2	13	1	/	/	/	-4.8
O=C(c1ccc(S(=O)(=O)Nc2ccccc2)cc1)N1CCCC1	2	2	/	-0.4	-3	2	12	2	1.4	5.4
CC1(C)c2[nH]c3ccccc3c2C[C@@H]2C(=O)N(Cc3ccccc3F)C(=O)N21	5	-4	-5	0.5	23	25	-18	-34	-16	0.7
COc1ccccc1CN1CC(C(=O)NCCN(C)CCc2ccccc2)CCC1=O (centres undefined)	-6	-12	1	1.9	-3	60*	7	12	-6.5	1.6
Cc1ccc(OCCN2C(=O)c3ccccc3C2=O)c(C)c1	1	-13	-6	-1.5	8	-8	/	/	/	-2.1
Cc1cc(C)c(S(=O)(=O)c2c(C)cccc2C)c(OCC(C)C)n1	-6	1	-15	-0.3	1	6	/	/	/	-0.6

(cont.)
SMILES	Beta cell apopt	B2AR ag	ALR H2O2 inh	Bfl-1 A1 inh	Calb FLC	T cruzi repl	Ecoli rRNA inh	Ecoli rRNA inh OD600	Ecoli rRNA inh RFP	LANA-H2A inh
Cc1cc(Br)ccc1NC(=S)NC1CCCC1	-2	6	-4	1.0	-2	-20	-11	-33	-6.7	0.4
CN(C)c1ccc(/C=N/NC(=O)C2COc3ccccc3O2)o1 (centres undefined)	0	-6	-8	0.0	3	-4	-15	-30	-12	-3.5
Cc1cccc(C(=O)NCC(=O)OCc2cc(=O)n3ccsc3n2)c1	3	2	-4	0.1	4	0	9	8	1.1	1.4
Cc1n[nH]c(C)c1S(=O)(=O)N1CCOCC1	-10	-3	4	-0.5	7	-14	/	/	/	2.3
COc1ccc2ccc(OCC(=O)Nc3cc(C)on3)cc2c1	1	-8	-7	-1.0	/	/	7	13	-0.6	3.3
COc1ccc(C)cc1NC(=S)NN1CCN(C)CC1	-7	2	28	1.0	-10	16	10	12	-4.5	1.5
Cc1ccc(NC(=S)NC2CC3CCC(C2)N3Cc2ccco2)c(C)c1 (centres undefined)	-9	-13	69	0.9	-2	-9	/	/	/	-1.7
O=C(COC(=O)/C=C/c1ccc(F)cc1)NC1CC1	1	-6	/	0.1	/	/	9	10	2.9	-0.1
C/C(NCc1ccccc1)=C(\C#N)C(=O)NCc1ccccc1	-2	-8	-7	-0.4	-17	-1	/	/	/	-0.5
O=C(Cc1ccc(Cl)cc1)NC1CC1	-2	-3	-2	-1.0	2	-9	13	14	1.0	1.2

Screening results deposited in PubChem by several laboratories.

The list is partial; the hit share may differ from the screen's.
